TRPML1 ag: agonists of human TRPML1 channel. activation, % (concentration not given with the values). 0.12% of 410,000 active. TRPML1-expressing cells, Ca2+ dye fluorescence, FDSS; host cell line not named in the record; reference of the full effect not given here; in the data active = activation above about 50%; inconclusive = about 30% to 50%; inactive = below about 30%; further: 0% is about no effect; the text of the record puts the active cut at 80%
Target sequence (Q9GZU1 whole entry, looked up): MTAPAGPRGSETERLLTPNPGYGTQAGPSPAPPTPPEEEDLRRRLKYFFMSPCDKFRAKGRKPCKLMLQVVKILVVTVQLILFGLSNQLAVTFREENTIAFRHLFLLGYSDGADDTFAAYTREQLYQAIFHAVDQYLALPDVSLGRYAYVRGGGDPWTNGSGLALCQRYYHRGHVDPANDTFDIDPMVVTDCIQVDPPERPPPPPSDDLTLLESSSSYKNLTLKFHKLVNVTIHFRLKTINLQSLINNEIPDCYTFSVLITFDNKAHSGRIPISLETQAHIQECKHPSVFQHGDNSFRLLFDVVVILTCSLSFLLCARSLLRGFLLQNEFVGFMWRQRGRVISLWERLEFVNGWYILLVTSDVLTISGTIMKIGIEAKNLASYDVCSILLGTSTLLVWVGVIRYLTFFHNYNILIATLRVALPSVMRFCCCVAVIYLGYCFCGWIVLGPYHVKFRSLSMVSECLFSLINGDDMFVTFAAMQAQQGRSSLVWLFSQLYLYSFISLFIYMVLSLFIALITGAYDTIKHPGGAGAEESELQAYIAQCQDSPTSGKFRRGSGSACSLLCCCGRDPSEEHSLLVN
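TRPML1-DL cells, Tet-induced overnight (~16 h, 37 degrees C), loaded 45-90 min at room temperature with Ca8 no-wash calcium dye plus quencher. FDSS fluorescence: 10 s baseline, compound pin-transfer, 110 s agonist read, then EC80 54-4 (4uM final) and 110 s antagonist read.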
TRPML1 blocker: human mucolipin-1 channel inhibition; activity change, negative = inhibition, % (no concentration beside the values); AID 624415; TRPML1-inducible cells, Ca2+ dye fluorescence, FDSS; active compounds read low; inhibition of EC80 agonist-evoked calcium signal; 0.02% of 390,000 active; in the data active means activity change below about -50%; inconclusive means about -30% to -50%; inactive means above about -30%;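 further: stimulus is agonist 54-4 at its EC80 concentration; on the % scale 0 is the no-effect control and ±100 the full control effect; compound concentration not given in the record; the text of the record puts the active cut at -80%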
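Calcium fluorescence in TRPML1-DL cells induced overnight with Tet: a 110 s read after compound pin addition, then a 110 s antagonist read after challenge with 54-4 at 4 uM final (EC80).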
TRPV1 PAM: enhances activation of the human vanilloid receptor TRPV1 | Q8NER1 | TRPV1-expressing cells, Fluo-8 calcium influx, capsaicin EC20 potentiation; host cell line not named in the record; control for the full effect not named in the record | potentiation, % at 8.33 µM | 0.02% of 320,000 active | AID 540277; active means potentiation above 80%; inconclusive means 30% to 80%; inactive means below 30%; further: 0% is about no effect
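Fluo-8 calcium influx in TRPV1-expressing cells, kinetic read (ex 480/em 520 nm). Compound added and read 3 min for agonist activity, followed by capsaicin at EC20 final and 2 min further read for enhancement.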
D2 PAM: potentiates the human D2 dopamine receptor allosterically; P14416; DiscoveRx D2 beta-arrestin cells, luminescence, 90 min; 100% = 57 uM dopamine signal; potentiation, % (test concentration not listed); 0.23% of 360,000 active; AID 624464; active = potentiation of 50% or more; inconclusive = 30% to 50%; inactive = 30% or less;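 further: compound concentration not given in the record; tested on top of an EC20 dose of dopamine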
Target sequence (P14416 whole entry, looked up): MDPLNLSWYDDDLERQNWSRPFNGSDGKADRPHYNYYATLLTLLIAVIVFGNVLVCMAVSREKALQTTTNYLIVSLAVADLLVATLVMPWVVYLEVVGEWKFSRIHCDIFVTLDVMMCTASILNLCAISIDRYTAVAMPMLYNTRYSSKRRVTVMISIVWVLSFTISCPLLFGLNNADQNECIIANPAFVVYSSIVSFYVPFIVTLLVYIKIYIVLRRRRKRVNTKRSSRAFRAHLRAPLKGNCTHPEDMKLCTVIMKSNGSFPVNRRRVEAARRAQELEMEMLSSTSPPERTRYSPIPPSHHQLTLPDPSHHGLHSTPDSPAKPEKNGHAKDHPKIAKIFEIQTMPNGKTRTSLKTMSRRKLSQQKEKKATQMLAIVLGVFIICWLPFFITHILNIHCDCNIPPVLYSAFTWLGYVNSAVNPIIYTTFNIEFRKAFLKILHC
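PathHunter beta-arrestin assay in DiscoveRx D2 cells. Compounds were added with an EC20 of dopamine (50 nM final) for 90 min at 37 deg C. Luminescence was read 1 h after detection reagent, with 57 uM dopamine as the EC100 control.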
CtBP-E1A blk: blocks the CtBP interaction with E1A; 0.49% of 340,000 active; AlphaScreen GST-E1A/His-CtBP binding, 1536-well; active compounds read low; control for the full effect not named in the record; activity change, % (no concentration beside the values); AID 651724; in the data active means activity change below about -65%; inconclusive means about -30% to -65%; inactive means above about -30%; further: on the % scale 0 is the no-effect control and ±100 the full control effect
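GST-E1A and His-tagged CtBP (125 nM each as 5X stock) were preincubated with pin-transferred compound for 2 h at 37 °C in the dark, then glutathione donor and nickel acceptor beads were added for 1 h before AlphaScreen reading.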
Six1-Eya2 inh: Six1/Eya2 interaction inhibition; Q15475+O00167; AlphaScreen GST-Six1/His-Eya2 binding, biochemical; active compounds read low; control for the full effect not named in the record; activity change, % (concentration not given with the values); 0.56% of 360,000 active; AID 651725; in the data active = activity change below about -65%; inconclusive = about -30% to -65%; inactive = above about -30%; further: on the % scale 0 is the no-effect control and ±100 the full control effect
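Homogeneous AlphaScreen proximity assay pairing GST-Six1 with His-tagged Eya2 (added as 5X mix: 250 nM and 500 nM) in 50 mM Tris pH 8.0, 300 mM NaCl, 1 mM TCEP. Glutathione donor and nickel acceptor beads; 1 h, 37 °C, dark.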
An asterisk follows results filed as active; ? = inconclusive; . = not tested or not shown; & = joins results of further samples.

Values run as follows: CtBP-E1A blk, D2 PAM, Six1-Eya2 inh, TRPV1 PAM, TRPML1 blocker, TRPML1 ag
- Cc1[nH]n(-c2ccccc2)c(=O)c1C=NCc1ccncc1
  4, -5, 3, 8, -1, -0.4
- CCOC(=O)c1[nH]c2ccc(OC)cc2c1NC(=O)CCN1CCc2ccccc2C1
  3, -31, -4, -11, -4, 2.4
- C[C@H](OC(=O)n1ccnc1)[C@@H]1O[C@@]2(C)CCC[C@@H]1O2
  7, -5, 4, -1, -13, 1.0
- CCOc1ccc(Nc2nnc(Cc3ccc(OC)cc3)c(=O)[nH]2)cc1
  ., -3, 5, 2, -9, -1.0
- COc1ccc(CCNC(=O)CSCc2ccc([N+](=O)[O-])cc2)cc1
  6, -4, 0, -22, 5, 0.5
- CCOC(=O)C1=C(C)NC(C)=C(C(=O)OCC)C1C(=O)OCC(=O)NC
  4, -5, 4, -7, -5, -1.2
- O=C(NCC1CCCO1)C1CCC(CNS(=O)(=O)c2ccccc2)CC1 (centres undefined)
  3, 4, 3, 19, -10, -1.3
- CCCCCN(C(=O)CCC(=O)OCc1ccccc1F)c1c(N)n(CCCC)c(=O)[nH]c1=O
  -7, 3, 11, 2, -18, 0.4
- O=C(NC1CCCCCC1)c1ccc[nH]c1=S
  2, -1, 0, -4, -3, -0.9
- CC1CCc2nc3ccccc3c(C(=O)OCC(=O)N3CCc4ccccc43)c2C1 (centres undefined)
  8, -2, -3, 5, 20, 2.0
- COc1ccccc1-c1nn(Cc2ccccc2)cc1/C=C/C(=O)O
  5, 0, 1, -4, ?, 0.0
- Cn1c(C(=O)NCCN2CCc3ccccc3C2)cc2c(=O)n(C)c3ccccc3c21
  ?, -6, -11, ., -22, 2.7
- S=c1[nH]nc(COc2ccc(Cl)cc2)n1Cc1ccccc1
  9, -7, 11, -8, -5, 0.0
- NC(=O)c1cc([N+](=O)[O-])ccc1NCc1cccc(N)c1
  -27, -13, 1, -2, -12, -0.1
- O=C(CCn1nc(-c2ccc(Cl)cc2)c2ccccc2c1=O)NCCN1CCOCC1
  0, -16, 0, 0, -6, 0.1
- COC(=O)CN1C(=O)[C@H]2[C@@H](c3ccc(C)o3)N3C(=O)CN(CCO)C(=O)[C@@]3(C)[C@H]2C1=O
  -3, -5, 9, 0, -7, -0.2
- O=C(CN1C(=O)c2ccccc2S1(=O)=O)NCc1ccc(F)cc1
  7, -12, 3, -24, 5, 0.0
- Cc1ccc(O)c(-c2cc(C(=O)Nc3ccc(S(=O)(=O)Nc4nccc(C)n4)cc3)[nH]n2)c1
  -22, 0, -30, -1, -9, 1.0
- CC1(C)COCN1C(=O)c1ccc(C#N)cc1
  0, -6, -4, 11, 35, 0.5
- CN1CCN(c2cc(C(F)(F)F)nc(-c3ccccn3)n2)CC1
  1, -2, 4, -1, 0, 0.2
- CCOC(=O)c1oc2ccccc2c1CSc1nnnn1-c1ccccc1
  1, 6, 3, -1, -4, -0.1
- CCCCC(=O)Nc1cccc(NC(=O)c2cccc([N+](=O)[O-])c2)c1
  ., -7, -1, -11, 10, 0.7
- CN(/N=C/c1cccs1)c1cc(=O)n(C)c(=O)[nH]1
  -6, -23, -21, 3, 3, 0.2
- CCn1c(=O)n(CC)c2cc(N3CCCC3)c(NC(=O)c3ccc(C)c([N+](=O)[O-])c3)cc21
  -18, -8, -14, 12, 10, 0.8
- Cc1c(C(=O)OCC(=O)N2CCCC(C)C2)oc2ccccc12 (centres undefined)
  10, -3, -7, -8, 3, 1.9
- O=C(CSc1nnc(-c2ccc(NS(=O)(=O)c3ccccc3)cc2)o1)NCC1CCCO1 (centres undefined)
  -1, -5, 16, 1, -2, 1.1
- CCn1c(SCC(=O)Nc2nc(-c3ccccc3)cs2)nnc1-c1ccccc1
  -3, 0, -13, 20, 26, 3.0
- Cc1cc(N/C=C/C(=O)c2cccc3ccccc23)no1
  1, 4, -2, 1, 9, 1.8
- COc1ccc(C(CC(=O)Nc2ccc(C)cn2)N2Cc3ccccc3C2=O)cc1 (centres undefined)
  -12, -15, -6, -19, 2, 2.4
- O=C(Cc1ccccc1[N+](=O)[O-])Nc1ccc2c(c1)OCCO2
  10, -27, 4, -9, 7, -0.7

Molecules above containing a Cl atom (2):
Values run as follows: CtBP-E1A blk, D2 PAM, Six1-Eya2 inh, TRPV1 PAM, TRPML1 blocker, TRPML1 ag
- S=c1[nH]nc(COc2ccc(Cl)cc2)n1Cc1ccccc1
  9, -7, 11, -8, -5, 0.0
- O=C(CCn1nc(-c2ccc(Cl)cc2)c2ccccc2c1=O)NCCN1CCOCC1
  0, -16, 0, 0, -6, 0.1

Continuation.
Values run as follows: CtBP-E1A blk, D2 PAM, Six1-Eya2 inh, TRPV1 PAM, TRPML1 blocker, TRPML1 ag
- C#CCSc1nc(Cc2ccc(Cl)cc2)nc2ccccc12
  5, -1, 13, 13, 8, 3.2
- O=C1CC(C(=O)NC2CCCCC2)C2(CCCCC2)O1 (centres undefined)
  10, -7, 5, -7, -3, 2.3
- O=C(Nc1nnc([C@@H]2C[C@H](O)[C@@H](CO)O2)s1)c1cccc2ccccc12
  0, -2, 3, ., ., 0.2
- CS(=O)(=O)N(CCc1ccccc1)CC(=O)Nc1ccc(Br)cc1F
  11, -9, 0, -2, 4, 0.2
- COc1ccc(Cl)cc1-c1cc(C(=O)Nc2ccc(F)cc2)[nH]n1
  7, -11, 4, ., ., -0.3
- CC1Cc2cc(/C(O)=C3\C(=O)C(=O)N(Cc4ccncc4)C3c3ccccc3F)ccc2O1 (centres undefined)
  -10, -2, 4, 6, -14, 0.0
- CCN(CC)c1ccc(CN2CCCCCC2)cc1
  -1, -34, -7, 21, 7, 1.2
- COc1ccc(C(O)c2ncc(-c3ccccc3C)[nH]2)cc1 (centres undefined)
  -1, -16, -5, ., 26, -0.3
- Cc1c(O)ccc(C(=O)CN2CCN(c3ccccc3)CC2)c1O
  ., -16, 5, 1, -6, -0.3
- CCOc1ccc(CN2C(=O)c3ccccc3Sc3ccc(C(=O)NCCCN4CCOCC4)cc32)cc1
  -21, -18, -1, -1, -7&-17, 1.4&2.2
- CC1(C)CSC(=S)N1S(=O)(=O)c1ccccc1
  -5, -2, -1, -8, -3, 0.1
- Nc1scn[n+]1Cc1cccc2cccnc12
  5, -11, -2, 24, 50, -0.7
- Cc1ccc(C(=O)Nc2ncc(Cc3ccc(SC(F)F)cc3)s2)cc1
  4, -3, 6, -3, -8, 2.1
- COc1cc(/C=N/NC(=O)c2cc(-c3ccccc3Cl)nc3ccccc23)cc(OC)c1O
  -12, -1, -25, ., 7, -0.2
- CCCCCCc1c(C)c2ccc(OCC(=O)N3CCC[C@H]3C(=O)O)c(C)c2oc1=O
  -5, -23, -15, 2, ., .
- CCOC(=O)c1cn(Cc2c(C)c(C)c(C)c(C)c2C)nn1
  -6, -5, 15, -11, 0, 1.6
- CC1CCCC(NC(=O)c2cccc(S(=O)(=O)NCc3ccccc3)c2)C1C (centres undefined)
  -1, -3, 6, 2, 15, 1.7
- Cc1nc2ccccc2n1CC(=O)NN
  ., -4, -7, -3, -6, -0.2
- CC(=O)c1ccc(NCC(=O)N2CCN(c3ccccc3)CC2)cc1
  -2, -14, -8, 0, 4, 2.1
- CN(C)c1ccc2c(O)cc(=O)n(C)c2c1
  -3, 10, -3, -1, -4, 2.3
- CN(C(=O)c1cccc(NC(=O)Cc2ccc(NC(=O)C3CCCN(C(=O)c4ccccc4)C3)cc2)c1)C1CCCC1 (centres undefined)
  -23, -2, 0, ., -15, 1.4
- Cc1nc(NCCCO)c(C#N)c2c1COC(C)(C)C2
  -3, 9, 1, -5, -5, -0.7
- Cc1cc(C)n2nc(CNS(=O)(=O)c3ccc([N+](=O)[O-])cc3)nc2n1
  7, 5, 7, 15, 14, -0.7
- O=C(NNS(=O)(=O)c1ccccc1[N+](=O)[O-])c1ccc(F)cc1
  4, 1, -3, 20, ?, 0.5
- CCOC(=O)C1CCN(C(=O)C2CCN(c3ncnc4c3nc3n4CCCCC3)CC2)CC1
  ., -6, 11, 11, -10, 1.2
- CCCn1c(C)cc(C(=O)COC(=O)c2c(C)nn(-c3ccccc3)c2C)c1C
  -24, -10, -19, 10, -5, 2.4
- COc1ccc(NC(=O)Nc2cccc(NC(C)=O)c2)c(OC)c1
  1, -7, 0, -6, 4, -0.5
- O=C(CN(C(=O)CNS(=O)(=O)c1ccc(F)cc1)c1cccc(F)c1)NCC1CCCO1 (centres undefined)
  5, -3, -4, -1, -6, 1.5
- C/C(=N\OCC(=O)Nc1nc2ccccc2s1)c1ccccc1
  14, -12, 0, 10, 0, -0.4
- CC(C)OC(=O)Cn1cnc2ccc(Br)cc2c1=O
  -13, 6, -9, -3, -6, 0.1

Values run as follows: CtBP-E1A blk, D2 PAM, Six1-Eya2 inh, TRPV1 PAM, TRPML1 blocker, TRPML1 ag
- O=[N+]([O-])c1ccc(CSc2nc3ccccc3[nH]2)cc1
  -19, -4, -6, -2, 22, 0.1
- O=C(NCCc1ccc(Cl)cc1)C1CC(=O)N(C2CCCC2)C1 (centres undefined)
  1, -11, 1, -6, 13, 0.1
- CN(CC(=O)Nc1ccccc1Cl)C(=O)c1cccc(S(=O)(=O)N2CCN(c3ccccc3)CC2)c1
  -2, -20, -14, ., 27, 1.9
- Nc1[nH]c(C(=O)c2ccccc2)c(-c2ccccc2C(F)(F)F)c1C(=O)NCc1ccc(F)cc1
  -7, ., -5, ., ., -0.9
- COc1ccc(NC(=S)NCCN2CCOCC2)cc1
  3, -5, -2, -7, -4, 0.8
- CCC(C(=O)Nc1cc(Cl)ccc1OC)c1ccccc1 (centres undefined)
  ., -9, 14, -9, 14, 0.1
- Cc1ccc(S(=O)(=O)N(CC(=O)N2CCC(C)CC2)c2ccccc2)cc1
  10, -4, 5, 10, -8, 0.4
- CCCOc1ccc(C(O)(CCC)CCN2CCCCC2)cc1 (centres undefined)
  -4, -29, 6, 3, -3, 0.8
- [O-]c1c[n+](-c2ccccc2)no1
  ., -16, 6, 8, 1, -0.8
- COc1ccc(N(CC(=O)NCc2ccc(Cl)cc2)S(=O)(=O)c2c(C)nn(C)c2C)cc1
  9, 2, -2, 24, -10, 0.1
- N#Cc1cccc(-c2csc(C(O)c3ccco3)n2)c1 (centres undefined)
  -8, -3, 6, ., ., -0.1
- COC(=O)c1ccc(CSc2nnc(CS(=O)Cc3ccc(Br)cc3)n2-c2ccccc2)cc1 (centres undefined)
  -1, -11, -16, 7, -3, 3.4
- CCc1ccc(NC(=O)C2CCN(c3ncnc4c3nc3n4CCCCC3)CC2)cc1
  0, -3, 2, 10, -4, -0.4
- COC(=O)c1c(-c2ccc(OC)c(OC)c2)csc1N
  24, -34, 5, -10, -2, 0.5
- COc1cc(NC(=O)CCNC(=O)N2CC(=O)Nc3ccccc32)cc(OC)c1OC
  -10, -10, -17, ., 1, -0.8
- COc1cccc(CC(=O)OCC(=O)NC2CCCC2)c1
  -1, 8, 8, -5, 28, -0.8
- Cc1cccc(C)c1NC(=O)CSc1nnnn1-c1ccc(C(=O)O)cc1
  6, 10, 9, -6, 7, -0.5

Complete entries, quoted from the list.
CCCOc1ccc(C(O)(CCC)CCN2CCCCC2)cc1 (centres undefined) is listed as CtBP-E1A blk = -4; D2 PAM = -29; Six1-Eya2 inh = 6; TRPV1 PAM = 3; TRPML1 blocker = -3; TRPML1 ag = 0.8
[O-]c1c[n+](-c2ccccc2)no1 is listed as CtBP-E1A blk = .; D2 PAM = -16; Six1-Eya2 inh = 6; TRPV1 PAM = 8; TRPML1 blocker = 1; TRPML1 ag = -0.8

From PubChem
